MLL AF4-AF9 inh: blocks AF4 peptide binding to human AF9 | P42568 | AlphaScreen, biotin-AF4 peptide binding to FLAG-AF9 | inhibition, % at 10 µM | 350,000 tested, 0.47% active | AID 651704;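 active = every replicate reaching a set inhibition limit, whatever the replicate mean, cut at about 25% in these data; inconclusive = mean inhibition reaches that limit but some replicates miss it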;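 note: 0% = plate neutral control median and 100% = total signal loss; the record names both 10 and 1 µM as test concentration; the first replicate is given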
Target sequence (P42568 whole entry, looked up): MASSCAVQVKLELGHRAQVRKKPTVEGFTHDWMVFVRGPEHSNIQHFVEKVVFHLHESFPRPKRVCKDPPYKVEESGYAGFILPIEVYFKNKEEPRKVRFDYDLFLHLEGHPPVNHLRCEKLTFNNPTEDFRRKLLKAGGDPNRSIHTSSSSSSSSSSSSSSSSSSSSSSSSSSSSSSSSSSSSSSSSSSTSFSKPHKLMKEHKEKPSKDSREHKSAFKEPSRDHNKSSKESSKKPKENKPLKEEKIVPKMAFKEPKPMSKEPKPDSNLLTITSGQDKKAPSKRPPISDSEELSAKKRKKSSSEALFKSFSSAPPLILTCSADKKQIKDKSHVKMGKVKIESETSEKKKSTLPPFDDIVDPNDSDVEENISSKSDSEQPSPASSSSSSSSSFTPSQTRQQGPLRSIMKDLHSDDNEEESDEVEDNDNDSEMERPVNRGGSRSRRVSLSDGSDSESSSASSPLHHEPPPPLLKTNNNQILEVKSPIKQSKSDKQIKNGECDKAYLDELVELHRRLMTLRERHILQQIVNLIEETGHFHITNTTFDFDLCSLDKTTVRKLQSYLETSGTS
rRNA inh HTS: inhibitors of bacterial rRNA selective over humanized ribosomes; GFP signal change (wild-type ribosome), % (concentration not given with the values); E. coli WT GFP vs humanized-ribosome RFP mutants, fluorescence, 24 h; hits give low values; DMSO median 0, no signal -100; AID 720706; 350,000 tested, 1.6% active;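 active = significant combined selectivity score with lowered wild-type GFP, culture density cut under 30%, mutant RFP and density less affected; inactive = any of these conditions unmet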; note: one replicate is shown; some compounds called inactive have numbers as strong as hits
E coli growth: E. coli growth inhibition | 330,000 tested, 0.21% active | Escherichia coli growth, OD600, 23 h; hits give low values | OD600 absorbance (no concentration beside the values);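 active = OD600 absorbance below the run mean of sample wells minus 3.6 SD, in any replicate, cut at about 0.56 in these data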;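 note: stock transfer was 300 nL into about 60 µL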
ALR inh: human ALR oxidase inhibition via reduced H2O2 | P55789 | purified ALR, DTT oxidation, H2O2 HRP-luminol luminescence | inhibition, % (test concentration not listed) | 290,000 tested, 3.8% active | AID 485317;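 active = mean and each replicate at 75% or more; inconclusive = only one of the two met; inactive = neither met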;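 note: stock transfer was 7.5 nL into about 7.5 µL; 0% = neutral wells and 100% = wells with inactivated enzyme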
HNF4A DNA FP: change in binding of human HNF4 alpha to DNA; activity change, % at 10 µM; P41235; 360,000 tested, 0.3% active; HNF4a-FITC DNA binding, fluorescence polarization, 1 h; in the data active = activity change above about 30%, passing the limit was not always enough;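 note: controls were the assay level and a saturating level of protein; the project sought stronger binding though the title names inhibitors; some compounds called inactive have numbers as strong as hits; positive values seem to mean higher polarization but the record does not say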
Target sequence (P41235 whole entry, looked up): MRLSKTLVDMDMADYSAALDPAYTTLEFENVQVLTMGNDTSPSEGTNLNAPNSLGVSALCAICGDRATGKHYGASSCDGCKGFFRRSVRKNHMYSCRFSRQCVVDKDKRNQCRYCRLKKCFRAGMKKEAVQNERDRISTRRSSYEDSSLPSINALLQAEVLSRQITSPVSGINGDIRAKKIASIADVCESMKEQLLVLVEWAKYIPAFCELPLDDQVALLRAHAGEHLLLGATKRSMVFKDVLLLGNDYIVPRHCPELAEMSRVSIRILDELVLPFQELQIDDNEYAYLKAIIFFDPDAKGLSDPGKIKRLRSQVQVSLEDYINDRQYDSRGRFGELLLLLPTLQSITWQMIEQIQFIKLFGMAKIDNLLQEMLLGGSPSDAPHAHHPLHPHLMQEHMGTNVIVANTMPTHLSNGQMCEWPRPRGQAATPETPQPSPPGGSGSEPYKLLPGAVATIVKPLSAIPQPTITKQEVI
FGF22 binding: FGF22 (human) thermal shift binding | recombinant FGF22 thermal shift, SYPRO orange fluorescence; percent of sucrose octasulfate shift, DMSO zero | calls only at 9.99 µM | 340,000 tested, 1.5% active;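 active = melting point raised past a set limit in the mean and every replicate; inconclusive = no clear call; three in four hits are not shown here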
Vif TR-FRET: inhibitors of Vif binding to APOBEC3G peptide, primary screen, biochemical, TR-FRET, GST-Vif 1-94, biotin-A3G peptide, dose response retest (AID 1117319) | TR-FRET GST-Vif / biotin-A3G peptide binding; higher % means a stronger effect; test concentration not given here; strong numbers were not always called active | inhibition, %, or IC50 in µM where a hit was titrated | 260,000 tested, 0.57% active;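 active = above the screen mean plus three standard deviations and confirmed in dose response; inconclusive = results disagree or hit not tested in dose response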;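 note: Vif residues 1-94 fused to GST binding biotinylated APOBEC3G peptide 110-148; 0% = full assay without inhibitor and 100% = GST in place of GST-Vif; retest series ran down from 100 µM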
rRNA inh HTS OD600: further read-out of rRNA inh HTS, marked with its call; OD600 change, %; measured here: OD600 growth;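 optical density of the mix in the first replicate; 0 = DMSO median and -100 = no signal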
rRNA inh HTS RFP: recorded beside rRNA inh HTS, whose call it bears; RFP signal change, %; measured here: RFP humanized mutant strains;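 first replicate; 0 = DMSO median and -100 = no signal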
Active calls of the source: *; i = inactive; ? = inconclusive; nt = no result given; & = joins results of further samples. A portion of the library (hit frequency here may not be typical).

SMILES	MLL AF4-AF9 inh	rRNA inh HTS	rRNA inh HTS OD600	rRNA inh HTS RFP	E coli growth	ALR inh	HNF4A DNA FP	FGF22 binding	Vif TR-FRET
COc1ccc(C2=NCC(=S)Nc3ccc(Cl)cc32)cc1Cl	-0.6	13	15	0.8	0.65	-3	-1.5	i	nt
N#CC(CCN1CCOCC1)(c1ccccc1)c1ccccc1	0.6	-4	-11	-2.5	0.7	-9	-1.9	i	-2%
CCn1c(O)c(/C(C)=N/N2CCCCC2c2cccnc2)c(=O)[nH]c1=S (stereo unspecified)	nt	nt	nt	nt	0.67	-7	5.2	nt	nt
CCOC(=O)C1CCCN(c2ccc([N+](=O)[O-])c3nonc23)C1 (stereo unspecified)	-2.2	32	-5	-16	0.64	nt	-101	i	4%
COC(=O)C1=C(c2c(C)noc2C)C[C@@H]2CC[C@H]1N2C(=O)N1CCC(O)(c2ccc(Cl)cc2)CC1	-0.4	-2	3	0.0	nt	-8	0.0	i	nt
COc1ccccc1-n1c(O)c(/C=N/NC(=S)Nc2ccccc2)c(=O)[nH]c1=S	-1.5	5	3	1.0	0.67	92*	5.8	i	?
COc1cc(CN2CCN(c3cc(C)ccc3C)CC2)ccc1O	-50	-4	-17	-0.6	0.64	59	7.4	i	-1%
Cc1cc(=O)oc2c(C)c(OCC(=O)N3CCN(Cc4ccc5c(c4)OCO5)CC3)ccc12	0.0	-1	-1	2.7	0.66	0	3.4	i	nt
CCN1C[C@@]2(COC)C3[C@@H](OC)[C@H]4[C@@H]1[C@@]3(C1C[C@H]3[C@H](O)C1[C@]4(O)C[C@H]3OC)[C@@H](OC)C[C@H]2O (stereo partly specified)	-3.7	3	22	12	0.7	-7	3.5	i	nt
OC(CN1CCC(c2c[nH]c3ccccc23)CC1)C(F)(F)F (stereo unspecified)	1.7	3	11	-0.2	0.63	nt	1.1	i	-5%
COc1c2c(cc3c1OCO3)CCN(C)C2	-1.9	nt	nt	nt	0.67	-2	2.7	i	nt
CC=Cc1ccc2n(c1=O)C[C@H]1[C@H](CO)[C@@H](C(=O)OC)[C@@H]2N1C(=O)CC (mixture of isomers)	0.1	1	3	-0.3	nt	nt	nt	i	nt
C[N+]1(C)C2CCC1CC(OC(=O)c1ccco1)C2 (stereo unspecified)	-3.7	-18	-23	5.5	0.68	-7	5.4	i	?
CC(=O)c1ccc2c(c1)C1C(Cl)C(Sc3ccccc3[N+](=O)[O-])CC1C(C(=O)O)N2 (stereo unspecified)	nt	nt	nt	nt	0.74	95*	-24	nt	nt
Cc1ccc(Cn2nnnc2CN2CCC(n3nnc4cc(C)ccc43)CC2)cc1	nt	nt	nt	nt	0.68	-31	-0.2	nt	-1%
C=CCn1c(O)c(C(C)=NCCN2CCCCC2)c(=O)[nH]c1=O	nt	nt	nt	nt	0.72	-4	9.4	nt	7%
C=CCn1c(O)c(C(C)=Nc2ccc(C(=O)O)cc2)c(=O)[nH]c1=O	5.7	3	3	2.1	0.7	-14	3.6	i	-7%
O=P1(Oc2ccccc2)CC=C[C@H](COCc2ccccc2)O1 (stereo partly specified)	nt	-10	-16	-1.8	nt	0	-4.1	i	nt
O=C(O)c1ccccc1-c1ccc(C=C2C(=O)N(c3ccccc3)C(=S)N(c3ccccc3)C2=O)o1	-5.1	-1	2	2.1	0.68	?	-5.5	i	9%
COC(=O)C1=CO[C@@H](C)[C@@H]2CN(CCc3c[nH]c4ccccc34)CC[C@H]12	1.6	nt	nt	nt	0.73	nt	-1.5	i	nt
O=c1c2ccccc2nc(CSc2ncnc3nc[nH]c23)n1-c1ccccc1Cl	nt	nt	nt	nt	0.72	-5	-1.0	nt	5%
C[C@H]1CN([C@@H](C)CO)C(=O)CCCn2nncc2CO[C@H]1CN(C)C(=O)Oc1ccccc1	-4.0&-2.9&-1.4	1&0	5&9	-2.3&-1.4	nt	nt	4.3	i	-2%
O=C1N(c2ccc(Cl)cc2)C(c2cccnc2)N2CCCN12 (stereo unspecified)	-1.2	-9	-8	-1.2	0.64	-6	3.4	i	-12%
N#Cc1cc(F)c(N2CCNCC2)cc1Cl	nt	nt	nt	nt	0.73	93*	-2.2	nt	-9%
Nc1cnn(-c2ccccc2)c(=O)c1Cl	-4.4	10	11	0.4	0.66	-7	1.6	i	nt
COC(=O)C1=C(c2cc3ccccc3s2)C[C@@H]2CC[C@H]1N2C(=O)NC1CCCCC1	9.0	-17	-27	-12	nt	-18	-1.0	i	nt
NC(=O)Nc1ccc(C(=O)OCC(=O)Nc2ccc(Cl)cc2C(=O)c2ccccc2)cc1	nt	nt	nt	nt	0.69	2	-0.8	nt	-3%
CC(=NCc1cccnc1)c1c(O)n(Cc2ccccc2)c(=O)[nH]c1=O	nt	nt	nt	nt	0.7	0	-1.6	nt	2%
O=C(O)[C@H]1[C@H](CO)[C@H]2Cn3c(cccc3=O)[C@@H]1N2C(=O)c1ccccc1	-1.9	2	8	-1.9	nt	nt	nt	i	nt
O=P1(Oc2ccccc2)C[C@@H](O)[C@@H](O)[C@H](COCc2ccccc2)O1 (stereo partly specified)	-0.2	2	12	-5.2	0.79	nt	0.8	i	1%
CN1CCC(O)(c2ccccc2)C(C(=O)c2ccccc2)C1 (stereo unspecified)	nt	nt	nt	nt	0.68	10	-1.3	nt	-3%
CCN(CC(=O)Nc1ccc(C#N)c(Cl)c1)CC(=O)NC1CCS(=O)(=O)C1 (stereo unspecified)	-51	-1	1	-2.3	0.63	nt	2.2	i	0%
CCn1c(O)c(C=Nc2ccc(N3CCOCC3)c(Br)c2)c(=O)n(CC)c1=S	nt	nt	nt	nt	0.77	4	-2.5	nt	3%
CC1=CC2OC3CC4OC(=O)C=CC=CC(C(C)O)OCC(O)C(C)CC(=O)OCC2(CC1O)C4(C)C31CO1 (stereo unspecified)	-1.4	4	9	-1.5	nt	nt	-1.6	i	6%
O=C(CCN1CCOCC1)Nc1ccc(Br)cc1C(=O)c1ccccc1	4.1	4	-9	2.6	0.68	22	1.6	i	10%
CC1=CC2/C=C(\C)CCC(O)C(O)/C=C/C(=O)C23C(=O)NC(CC(C)C)C3C1C (stereo unspecified)	nt	nt	nt	nt	nt	11	-2.8	nt	12%
CSc1ccc(CN2CCN(c3ccccc3C)CC2)cc1	-0.1	-16	-20	-1.0	0.58	-1	-2.9	i	nt
O=C(CN1CCN(S(=O)(=O)c2cccc(Cl)c2)CC1)N1CCCCC1	1.4	3	-4	-1.8	0.7	14	1.3	i	-14%
CN1CCN(c2ccc(N)c(N3CCN(C)CC3)c2)CC1	nt	nt	nt	nt	0.72	nt	5.5	nt	21%
CC(C)n1c(=O)c(C=Nc2ccc(S(N)(=O)=O)cc2)c(O)n(Cc2ccco2)c1=O	1.9	21	14	9.3	0.7	-3	4.9	i	21%
Cc1ncoc1C(=O)NCC1=C(c2ccc(S(C)(=O)=O)cc2)C[C@@H]2CC[C@H]1N2Cc1ccco1	-0.4	2	1	-0.3	nt	nt	-1.4	i	4%
Cn1cc(C(O)CN2CCCCC2)c2ccccc21 (stereo unspecified)	-4.8	2	10	-1.4	0.66	-39	-1.2	i	nt
CC1=CP(=O)(Oc2ccc([N+](=O)[O-])cc2)CC1 (stereo unspecified)	-0.8	10	15	-0.9	nt	nt	-1.4	i	-6%
O=c1c2ccccc2nc(/C=C/c2ccc3c(c2)OCO3)n1-c1ccccc1	0.5	-17	-37	-2.0	0.67	-3	0.5	i	-2%
C/C=C/c1ccc([C@H]2[C@@H](CO)N3CCCCN(C(=O)Cc4ccncc4)C[C@H]23)cc1	-8.0	1	-16	-0.1	nt	nt	nt	i	nt

An excerpt of these results, with two lines to a compound:
Order of values – MLL AF4-AF9 inh | rRNA inh HTS | rRNA inh HTS OD600 | rRNA inh HTS RFP | E coli growth | ALR inh | HNF4A DNA FP | FGF22 binding | Vif TR-FRET
> CC1=CC2OC3CC4OC(=O)C=CC=CC(C(C)O)OCC(O)C(C)CC(=O)OCC2(CC1O)C4(C)C31CO1 (stereo unspecified)
 : -1.4 | 4 | 9 | -1.5 | nt | nt | -1.6 | i | 6%
> O=C(CCN1CCOCC1)Nc1ccc(Br)cc1C(=O)c1ccccc1
 : 4.1 | 4 | -9 | 2.6 | 0.68 | 22 | 1.6 | i | 10%
> CC1=CC2/C=C(\C)CCC(O)C(O)/C=C/C(=O)C23C(=O)NC(CC(C)C)C3C1C (stereo unspecified)
 : nt | nt | nt | nt | nt | 11 | -2.8 | nt | 12%

Entries listed so far that contain a cyano group, in the order listed:
SMILES	MLL AF4-AF9 inh	rRNA inh HTS	rRNA inh HTS OD600	rRNA inh HTS RFP	E coli growth	ALR inh	HNF4A DNA FP	FGF22 binding	Vif TR-FRET
N#CC(CCN1CCOCC1)(c1ccccc1)c1ccccc1	0.6	-4	-11	-2.5	0.7	-9	-1.9	i	-2%
N#Cc1cc(F)c(N2CCNCC2)cc1Cl	nt	nt	nt	nt	0.73	93*	-2.2	nt	-9%
CCN(CC(=O)Nc1ccc(C#N)c(Cl)c1)CC(=O)NC1CCS(=O)(=O)C1 (stereo unspecified)	-51	-1	1	-2.3	0.63	nt	2.2	i	0%

The listing continues:
SMILES	MLL AF4-AF9 inh	rRNA inh HTS	rRNA inh HTS OD600	rRNA inh HTS RFP	E coli growth	ALR inh	HNF4A DNA FP	FGF22 binding	Vif TR-FRET
O=C1NC(=O)N(c2ccccc2F)C(=O)/C1=C/c1ccc(Sc2nc3ccccc3[nH]2)o1	-7.5	11	9	47	0.69	98*	14	nt	nt
CCC(=Nc1ccccc1NC(C)=O)c1c(O)n(C)c(=O)n(C)c1=O	4.7	15	6	2.5	0.68	-16	2.2	i	5%
CC(=NCCN1CCCCC1)c1c(O)[nH]c(=O)[nH]c1=O	nt	nt	nt	nt	0.66	-3	0.9	nt	17%
O=C1NC(=S)NC(=O)C12C(c1ccc(F)cc1)NC(=S)NC2c1ccc(F)cc1 (stereo unspecified)	nt	nt	nt	nt	0.68	10	2.8	nt	3%
COc1ccc(C2SCC(=O)Nc3c2c(=O)[nH]n3C2CCCCCC2)cc1 (stereo unspecified)	nt	nt	nt	nt	0.69	-2	4.1	nt	5%
CCC(C)N1C(=O)NC(=O)C2(Cc3c(ccc4ccccc34)N(C)C2)C1=O (stereo unspecified)	nt	nt	nt	nt	0.68	93*	0.3	nt	-3%
CC(C)=CCC12CN3CCN(CC(C3)C1=O)C2	nt	nt	nt	nt	0.72	-2	8.2	nt	5%
COc1ccc(C(=O)NCCN2CCN(C(=O)c3ccc(OC)c(OC)c3)CC2)cc1OC	-3.5	3	1	-2.5	0.68	-55	-1.2	i	1%
Cc1ccc(-c2cc(-c3ccc(C)cc3)[n+](C)o2)cc1	nt	nt	nt	nt	0.63	-20	1.7	nt	-3%
CCn1ccnc1CN1CCCC(C(=O)c2cc(F)ccc2OC)C1 (stereo unspecified)	-0.6	10	6	2.4	0.67	0	-1.0	i	10%
COC(=O)[C@@H]1[C@@H](CO)[C@@H]2Cn3c(ccc(-c4cccc(C(=O)N(C)C)c4)c3=O)[C@H]1N2C(=O)NC(C)C	0.6	1	9	-0.8	nt	nt	nt	i	nt
O=[N+]([O-])c1ccc(NCc2ccc(Cl)cc2)c2ccncc12	-1.2	11	18	8.4	0.68	nt	4.4	i	nt
c1coc(CN2Cc3ccccc3-n3nncc3C2)c1	-2.0	3	6	0.6	nt	nt	-2.7	i	3%
CCOC(=O)c1c(-n2c(C)cc(/C=C3\C(=O)NC(=O)N(C)C3=O)c2C)sc2c1CCCC2	nt	nt	nt	nt	0.67	-2	2.2	nt	7%
C=C1C(=O)[C@@]23C[C@H]4[C@@H]5[C@@]6(C)CCC[C@@]57[C@@H]2[C@@H](O)[C@@H]1C[C@H]3[C@H]7N4C6	-2.6	-9	5	-8.8	0.71	1	2.0	i	nt

Screens from PubChem BioAssay.
